Mtb H37Rv = M. tuberculosis H37Rv growth inhibitors, H37Rv strain (AID 1626); M. tuberculosis H37Rv growth inhibition; higher % means a stronger effect; one-dose inhibition, % at 10 µM; IC50 in µM for titrated hits; hit rate 0.95% among 220,000;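 active = confirmed in a dose series; inconclusive = inhibition above 80% but not taken into the dose series; inactive = below 80% or under 30% at every dose of the series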;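 also: bacteria incubated seven days before Alamar blue readout; 0% = bacteria only wells and 100% = bacteria with antibiotic wells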
YopH inh = inhibitors of Yersinia enterocolitica YopH tyrosine phosphatase | inhibition, %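 (about 10 µM by stock and volumes)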 | hit rate 0.16% among 140,000 | fluorescence Ex485/Em525;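 active = inhibition of 50% or more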;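 also: controls were vehicle for no effect and minimum signal wells for full effect; inactives centre near -20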
RecA splice inh = blocks M. tuberculosis RecA intein splicing; cell-free RecA intein splicing, fluorescence; hit rate 0.75% among 290,000; inhibition, %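 (about 9 µM by stock and volumes)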; in the data active = inhibition above about 30%; inconclusive = no clear call, values can overlap the other calls;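 also: 0% = vehicle wells and 100% = reference inhibitor control wells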
Target sequence (P9WHJ3 whole entry, looked up, canonical isoform): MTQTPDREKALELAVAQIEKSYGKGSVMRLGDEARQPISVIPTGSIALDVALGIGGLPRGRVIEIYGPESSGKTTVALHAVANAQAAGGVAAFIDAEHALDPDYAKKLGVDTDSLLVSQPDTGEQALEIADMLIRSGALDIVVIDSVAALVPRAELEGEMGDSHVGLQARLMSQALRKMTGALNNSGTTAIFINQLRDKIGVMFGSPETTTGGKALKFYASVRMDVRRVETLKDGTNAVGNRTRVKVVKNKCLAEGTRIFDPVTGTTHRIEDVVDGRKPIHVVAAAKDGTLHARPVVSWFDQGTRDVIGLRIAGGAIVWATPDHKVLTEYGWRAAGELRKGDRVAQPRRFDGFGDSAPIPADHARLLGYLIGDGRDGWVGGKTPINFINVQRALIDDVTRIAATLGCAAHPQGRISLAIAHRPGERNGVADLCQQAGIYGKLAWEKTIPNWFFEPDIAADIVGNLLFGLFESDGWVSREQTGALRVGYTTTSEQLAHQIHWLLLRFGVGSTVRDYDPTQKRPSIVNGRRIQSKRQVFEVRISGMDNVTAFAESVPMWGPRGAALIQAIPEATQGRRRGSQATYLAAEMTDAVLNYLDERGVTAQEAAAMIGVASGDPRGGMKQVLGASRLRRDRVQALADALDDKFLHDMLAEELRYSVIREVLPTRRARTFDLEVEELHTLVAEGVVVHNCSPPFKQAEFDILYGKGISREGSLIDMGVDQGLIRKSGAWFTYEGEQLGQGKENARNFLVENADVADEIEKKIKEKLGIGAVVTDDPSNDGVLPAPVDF
Arbovirus inh = arbovirus infection inhibition. inhibition, % at 10 µM. arbovirus infection cell-based antiviral screen. hit rate 0.37% among 200,000;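 active = inhibition from about 30%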;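 also: bluetongue infection of BSR cells; cell survival read as ATP light after 72 h; 0% = infected wells without compound and 100% = uninfected wells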
Mtb betalactam = beta-lactam sensitization of Mtb H37Rv | M. tuberculosis H37Rv growth with meropenem, percent inhibition; hits of this screen are not shown here | inhibition, % at 25 µM | hit rate 0.27% among 330,000;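 active = about 74% or more and at least 40 points above the plate without the antibiotic, then above 30% in a dose series; inconclusive = first-round hits that could not be retested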;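 also: growth measured after seven days incubation then overnight dye step; 0% = bacteria only wells and 100% = bacteria with antibiotic; twin plates without the antibiotic show which effects depend on it; some results filed as inactive read as strong as hits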
* = called active by the depositor; i = inactive; ? = inconclusive; nt = no result given. Some of the compounds tested (hit frequency here may not be typical).

(1) CC(C)(C)c1ccccc1NC(=O)Cn1c(=O)cnc2ccccc21
(2) CSc1nc(N)c2c(C)c(C)sc2n1
(3) COc1ccc(C2=CC(c3sccc3C)n3nnnc3N2)cc1 (stereo not given)
(4) COc1cc(C)nc(Oc2ccc(=O)n(C)n2)n1
(5) CCOC(OCC)c1cn(Cc2ccc(C(=O)c3ccccc3)cc2)nn1
(6) O=C(CSc1nc(=O)n2ccccc2n1)NC1CCCCC1
Screen / compound no.	1	2	3	4	5	6
Mtb H37Rv	-2%	4%	-4%	8%	nt	nt
YopH inh	-7	-19	-15	1	nt	nt
RecA splice inh	4.3	-1.3	-2.2	0.2	-1.6	2.8
Arbovirus inh	-2	5	-6	5	nt	nt
Mtb betalactam	-1	-5	58	nt	0	-8

(7) O=S(=O)(c1ccc(C2CCCCC2)cc1)N1CCCC1
(8) CCN(CC)S(=O)(=O)c1ccc2nc(NC(=O)c3ccco3)sc2c1
(9) CCCNCc1cc(OCC)c(OCC(=O)Nc2ccccc2)cc1Br
(10) CCCCNC(=O)Nc1ncn[nH]1
(11) COc1cc(/C=C(/C)[N+](=O)[O-])ccc1OCc1ccccc1Cl
(12) Cc1ccc(SC(C)C(=O)NCC(C)C)cc1 (stereo not given)
Screen / compound no.	7	8	9	10	11	12
Mtb H37Rv	2%	-9%	1%	nt	13%	-29%
YopH inh	-19	nt	nt	nt	-31	-17
RecA splice inh	1.5	-1.8	-4.5	0.6	4.2	-1.1
Arbovirus inh	0	-8	-3	nt	-32	-6
Mtb betalactam	-4	-2	4	2	100	-5

(13) COc1ccc(OCC(=O)Nc2ccc(S(=O)(=O)N3CCOCC3)cc2)cc1
(14) CCn1cc(C=C2C(=O)NC(=O)NC2=O)c2ccccc21
(15) Cc1ccccc1C(=O)NNC(=S)NC(=O)COc1ccccc1
(16) COc1ccc(CCCc2nnc(SCC(=O)N/N=C\c3ccc(O)c(OC)c3)o2)cc1C
(17) COc1ccc(-n2c(=O)[nH]cc(C(=O)N3CCCc4ccccc43)c2=O)cc1
(18) Cc1sc2nc(C)n(/N=C/N(C)C)c(=O)c2c1C
Screen / compound no.	13	14	15	16	17	18
Mtb H37Rv	2%	nt	4%	1%	-5%	-1%
YopH inh	-32	nt	-39	-40	-30	nt
RecA splice inh	-0.1	-3.2	40*	1.9	0.5	-1.1
Arbovirus inh	4	nt	-25	3	-1	nt
Mtb betalactam	-2	0	5	67	5	-8

(19) Cc1c(C)n(Cc2ccccc2)c2ccc(C(=O)NCCN3CCOCC3)cc12
(20) Cc1ccccc1C(=O)NNC(=O)c1ccoc1C
(21) CSCC[C@H](NC(=O)N1CCn2c1nc1ccccc12)C(=O)NCc1ccco1
(22) COc1ccccc1/C=C(/CC(=O)NCc1ccccc1)c1nc2ccccc2s1
(23) O=C(Oc1cccc([N+](=O)[O-])c1)N1CCCCC1
(24) COc1ccccc1CN1CCNC(=O)C1CC(=O)NCC1CCOCC1 (stereo not given)
Screen / compound no.	19	20	21	22	23	24
Mtb H37Rv	nt	-5%	nt	8%	10%	nt
YopH inh	nt	-13	nt	6	nt	nt
RecA splice inh	1.8	-0.4	-0.5	5.9	-3.9	0.6
Arbovirus inh	nt	6	nt	6	0	nt
Mtb betalactam	2	-10	1	11	1	-11

(25) N#CCc1ccc(OC(=O)c2cccnc2Cl)cc1
(26) COc1ccc(CNC(=O)C(C)OC(=O)CCN2C(=O)C3CC=CCC3C2=O)cc1 (stereo not given)
(27) Cc1sc(NC(=O)CSc2nnc3scc(-c4ccccc4)n23)c(C#N)c1C
(28) COC(=O)c1ccc(C(=O)N2CCCC(Nc3ccc(C(C)C)cc3)C2)nc1 (stereo not given)
(29) CCc1ccc(S(=O)(=O)/N=C2\C=C(Nc3ccc(C(=O)O)cc3)C(=O)c3ccccc32)cc1
(30) Cc1cc(-n2c(C)cc(C(=O)CN3C(=O)NC4(CCCCCC4)C3=O)c2C)no1
Screen / compound no.	25	26	27	28	29	30
Mtb H37Rv	nt	nt	4%	nt	nt	4%
YopH inh	nt	nt	-34	nt	nt	-25
RecA splice inh	2.3	-2.3	-1.6	4.7	91*	-0.5
Arbovirus inh	nt	nt	-5	nt	nt	-3
Mtb betalactam	-4	-7	-3	1	5	-3

(31) O=C(Nc1cccc2ccccc12)/C(=C/c1ccc([N+](=O)[O-])cc1)NC(=O)c1ccccc1
(32) CCOC(=O)C1(CCOC)CCN(Cc2nc(C(C)C)cs2)CC1
(33) CC(C)(C)OC(=O)NCC1CCC(C(=O)NC[C@H](CC(=O)O)c2ccc(Cl)cc2)CC1 (stereo not given in full)
(34) CNC(=O)COC(=O)c1ccccc1NC(=O)c1ccco1
(35) O=C(N=C1SC2CS(=O)(=O)CC2N1c1ccc(Br)cc1F)C1CC1 (stereo not given)
(36) CC(C)[C@H](NC(=O)C1(c2ccccc2)CCN(C(=O)OC(C)(C)C)CC1)C(=O)O
Screen / compound no.	31	32	33	34	35	36
Mtb H37Rv	nt	-1%	nt	44%	nt	-4%
YopH inh	-28	nt	nt	nt	nt	-24
RecA splice inh	2.4	-0.4	-4.3	-0.2	-5.8	-0.3
Arbovirus inh	6	-2	nt	nt	nt	6
Mtb betalactam	2	-7	-5	nt	1	5

(37) Cc1cc(N2CCC(C(=O)NCC3CC3)CC2)nc(-c2ccccc2)n1
(38) O=C(CCC1CCCN(C(=O)c2ccsc2)C1)NCc1ccc(F)c(F)c1 (stereo not given)
(39) O=C(NCCCN1CCOCC1)C(=O)N/N=C/c1ccccc1Cl
(40) CC1CCC(NC(=O)c2cccc(S(=O)(=O)NCc3ccccc3)c2)CC1 (stereo not given)
(41) C=CCN(CC=C)Cc1nc(N)nc(Nc2ccccc2C)n1
(42) Fc1ccc(C2CC(c3ccc(F)cc3)n3ncnc3N2)cc1 (stereo not given)
Screen / compound no.	37	38	39	40	41	42
Mtb H37Rv	-11%	0%	3%	nt	-17%	-10%
YopH inh	-38	nt	nt	nt	nt	-40
RecA splice inh	-0.7	-0.7	-1.2	-5.2	-2.2	-2.9
Arbovirus inh	3	1	nt	nt	17	2
Mtb betalactam	-7	4	-7	-5	68	4

(43) CCCN1C(=O)/C(=c2\s/c(=C3\C=Cc4ccccc4N3CC)c(=O)n2-c2ccccc2)SC1=S
(44) O=C(CN1CCSCC1)N/N=C/c1ccc(Cl)cc1
(45) C=CCn1c(SCC(=O)NCc2ccco2)nnc1C1CCCCC1
(46) Cc1cc(-n2c(C)c3c(C)nnc(C)c3c2C)ccc1N
(47) Clc1ccc(N2CCOCC2)nn1
(48) Cc1cc(C)c2cc(CN(CCN(C)C)C(=O)Nc3ccccc3Cl)c(=O)[nH]c2c1
Screen / compound no.	43	44	45	46	47	48
Mtb H37Rv	1%	4%	nt	2%	4%	-6%
YopH inh	-23	nt	nt	nt	nt	nt
RecA splice inh	-1.3	-2.3	-6.4	-2.3	-1.3	-1.3
Arbovirus inh	-1	-2	nt	nt	3	-25
Mtb betalactam	?	2	-8	-1	0	12

(49) Cc1cccn2c(=O)c3cc(C(=O)NCCc4ccccc4)c(=N)n(CC4CCCO4)c3nc12 (stereo not given)
(50) O=[N+]([O-])c1cccc(-c2nnc(CNC3CC3)o2)c1
(51) CC(C)(C)N(Cc1cc2ccccc2[nH]c1=O)C(=O)c1cccc([N+](=O)[O-])c1
(52) COCCn1c(-c2ccc(C)cc2)nc2oc3cc(OC)ccc3c(=O)c2c1=O
(53) Cc1cccc(Cn2cnc3c(nnn3Cc3ccc(Cl)cc3)c2=O)c1
(54) O=C(NCCO)Nc1ccc2nsnc2c1
Screen / compound no.	49	50	51	52	53	54
Mtb H37Rv	nt	2%	-7%	-2%	0%	7%
YopH inh	nt	nt	nt	nt	-23	nt
RecA splice inh	i	-2.6	3.2	2.0	0.7	nt
Arbovirus inh	nt	2	nt	nt	1	-17
Mtb betalactam	3	-2	-5	5	-7	-6

A different layout for 4 compounds above:
Values run as follows: Mtb H37Rv	YopH inh	RecA splice inh	Arbovirus inh	Mtb betalactam
[54] O=C(NCCO)Nc1ccc2nsnc2c1
  7%	nt	nt	-17	-6
[50] O=[N+]([O-])c1cccc(-c2nnc(CNC3CC3)o2)c1
  2%	nt	-2.6	2	-2
[53] Cc1cccc(Cn2cnc3c(nnn3Cc3ccc(Cl)cc3)c2=O)c1
  0%	-23	0.7	1	-7
[51] CC(C)(C)N(Cc1cc2ccccc2[nH]c1=O)C(=O)c1cccc([N+](=O)[O-])c1
  -7%	nt	3.2	nt	-5

(listing goes on)
(55) CCOC(=O)c1sc2ccccc2c1OC(=O)c1ccccc1OC
(56) CSCCC1NC(=O)N(CC(=O)Nc2c(C(C)C)cccc2C(C)C)C1=O (stereo not given)
(57) CCOC(=O)CCP(=O)(O)C(O)c1ccc(OC)cc1 (stereo not given)
(58) CNC(=O)c1c(NC(=O)C2=COCCO2)sc2c1CCCC2
(59) COc1ccc(C(=O)OCC(=O)NCC2CCCO2)cc1S(=O)(=O)N1CCCc2ccccc21 (stereo not given)
(60) Nc1ccc(N=Nc2ccccc2Cl)c(N)n1
Screen / compound no.	55	56	57	58	59	60
Mtb H37Rv	2%	0%	-1%	nt	-2%	71%
YopH inh	-16	nt	-14	nt	nt	nt
RecA splice inh	0.6	-2.5	0.6	3.5	-3.8	9.5
Arbovirus inh	4	-6	-3	nt	-2	nt
Mtb betalactam	59	-3	-13	?	-2	75

(61) N#CCCCN1C(=O)C(=C(C#N)C#N)c2ccccc21
(62) Cc1noc(C)c1COC(=O)CCc1ccc(S(=O)(=O)N2CCCCC2)cc1
(63) Cc1ccccc1N1CC(C(=O)Nc2ccncc2)CC1=O (stereo not given)
(64) CC(C)(C)NC(=O)C(=O)NN=C1CCCCCCCCCCC1
(65) Cc1cc(=O)[nH]c(NN=C(CC(C)C)CC(C)C)n1
(66) COc1ccc(/C=C(\NC(=O)c2ccccc2)C(=O)N/N=C/c2sccc2C)cc1
Screen / compound no.	61	62	63	64	65	66
Mtb H37Rv	-5%	-8%	nt	-4%	-8%	0%
YopH inh	nt	-29	nt	nt	-22	-11
RecA splice inh	nt	2.6	-1.8	-0.1	-3.7	-3.2
Arbovirus inh	-19	3	nt	1	-14	-5
Mtb betalactam	4	-5	-2	-3	-3	4

3 structures from above, sorted by number of heavy atoms, largest number first.
(66) COc1ccc(/C=C(\NC(=O)c2ccccc2)C(=O)N/N=C/c2sccc2C)cc1
(62) Cc1noc(C)c1COC(=O)CCc1ccc(S(=O)(=O)N2CCCCC2)cc1
(65) Cc1cc(=O)[nH]c(NN=C(CC(C)C)CC(C)C)n1
Screen / compound no.	66	62	65
Mtb H37Rv	0%	-8%	-8%
YopH inh	-11	-29	-22
RecA splice inh	-3.2	2.6	-3.7
Arbovirus inh	-5	3	-14
Mtb betalactam	4	-5	-3

Later entries
(67) COC(=O)N(C)c1ccccc1C(=O)N1CCOCC1
(68) COc1ccc(CC(=O)O/N=C(\N)c2ccc(OC)cc2)cc1
(69) COc1cc(CC(=O)Nc2sc3c(c2C(N)=O)CCCC3)cc(OC)c1OC
(70) C=CCn1c(SCC(=O)NC(=O)c2cccc([N+](=O)[O-])c2)nnc1-c1ccccc1F
(71) CN(Cc1cccs1)CC(O)COCc1ccco1 (stereo not given)
(72) CC(C)(CO)NS(=O)(=O)c1ccc2c(c1)C(=O)c1cc(S(=O)(=O)NC(C)(C)CO)ccc1-2
Screen / compound no.	67	68	69	70	71	72
Mtb H37Rv	0%	4%	nt	3%	-11%	-8%
YopH inh	-19	nt	nt	-43	-16	nt
RecA splice inh	-0.1	1.6	-3.3	0.1	0.7	-1.6
Arbovirus inh	0	nt	nt	6	2	nt
Mtb betalactam	-15	1	4	0	-2	-12

(73) O=C(CCN1CCCCCC1)Nc1ccc2c(c1)OCCO2
(74) CC(=O)OC1=C(C#N)Cn2ccc3cccc1c32
(75) C=COC(=O)CSc1nc(-c2cccs2)ccc1C#N
(76) CCOC(=O)N1CCN(C(=O)c2ccc(N(C)S(C)(=O)=O)cc2)CC1
(77) Cc1cnc(NC(=O)C2CCC(C(C)(C)C)CC2)s1 (stereo not given)
Screen / compound no.	73	74	75	76	77
Mtb H37Rv	4%	-8%	52%	-4%	nt
YopH inh	nt	-14	-12	-27	nt
RecA splice inh	-0.1	-3.2	nt	-0.6	5.8
Arbovirus inh	13	3	-11	2	nt
Mtb betalactam	-4	-12	95	30	18

Screening results (PubChem)
